Yeast UUG start – modulators of start codon recognition fidelity in yeast | activity score, % at 18.7 µM | S. cerevisiae UUG-firefly luciferase reporter, luminescence/redox ratio | 350,000 compounds, 0.13% hits | AID 602363;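 active = replicate mean at a twofold rise or more, about +100% in these data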;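 note: firefly luciferase made from a UUG start codon reports start codon fidelity; reporter light over untreated wells divided by growth signal over untreated wells; some hits fall short of that in this replicate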
An asterisk follows results filed as active.

SMILES	Yeast UUG start
Cc1cccc(S(=O)(=O)N2CCCCN3[C@H](C2)[C@H](c2ccc(C#CC(C)C)cc2)[C@@H]3CO)c1	15
O=C(C[C@@H]1CC[C@@H]2[C@H](COC[C@H](O)CN2C(=O)c2ccc(F)cc2)O1)NCCCN1CCOCC1	-2
O=C(Nc1ccccc1F)N1CCCCN2[C@H](CO)[C@H](c3ccc(-c4cccnc4)cc3)[C@@H]2C1	-4
C[C@@H]1CN([C@H](C)CO)C(=O)c2cccc(NC(=O)NC3CCCCC3)c2O[C@@H]1CN(C)C(=O)Nc1ccccc1	28
CO[C@H]1CN(C)C(=O)c2ccc(NC(C)=O)cc2OC[C@H](C)N(Cc2ccncc2)C[C@@H]1C	6
CCCNC(=O)Nc1ccc2c(c1)OC[C@H](C)N(C(=O)C1CCC1)C[C@H](C)[C@@H](OC)CN(C)C2=O	10
CCC(=O)N1C[C@@H]2[C@H](c3ccccc31)[C@H](CO)N2C(=O)CC1CC1	-6
CC(=O)N(C)C[C@H]1[C@H](c2ccc(-c3cccc(C#N)c3)cc2)[C@@H](CO)N1C(C)=O	-16
O=C(C1CCC1)N1CCCCN2[C@@H](CO)[C@@H](c3ccc(-c4cccc(F)c4)cc3)[C@@H]2C1	-9
CCN(C[C@H]1[C@H](c2ccccc2)[C@@H](CO)N1CC1CC1)C(=O)c1cccc(F)c1	3
CCC(=O)NC[C@@H]1[C@@H](c2ccc(-c3cccc(F)c3)cc2)[C@@H](CO)N1C(=O)CC	24
C[C@@H]1CN([C@@H](C)CO)C(=O)c2cc(NC(=O)Cn3cnnn3)ccc2O[C@@H]1CN(C)C(=O)Nc1ccc(C(F)(F)F)cc1	15
C[C@H](CO)N1C[C@H](C)[C@H](CN(C)C(=O)NC2CCCCC2)Oc2ccc(NC(=O)C3CCCCC3)cc2CC1=O	-1
CN1[C@@H]2c3ccc(-c4ccccc4)c(=O)n3C[C@H]1[C@H](CO)[C@H]2C(=O)NCCc1ccccc1	1
Cc1cc(C(=O)Nc2cccc3c2O[C@H](CN(C)Cc2ccncc2)[C@H](C)CN([C@@H](C)CO)C3=O)n(C)n1	-2
O=C(Nc1cccc(F)c1)N1CCCCN2[C@@H](CO)[C@@H](c3ccc(C#Cc4cccnc4)cc3)[C@@H]2C1	12
CO[C@@H]1CN(C)C(=O)c2ccc(NC(C)=O)cc2OC[C@H](C)N(C(=O)C2CC2)C[C@H]1C	16
C[C@@H]1CN([C@H](C)CO)C(=O)c2cc(NC(=O)CCC(F)(F)F)ccc2O[C@@H]1CN(C)S(=O)(=O)c1ccc(Cl)cc1	2
C[C@H]1CN([C@@H](C)CO)C(=O)Cc2cc(NC(=O)Cc3ccccc3)ccc2O[C@@H]1CN(C)C	-9
Cc1noc(C)c1NC(=O)N(C)C[C@@H]1Oc2c(NC(=O)c3nc4ccccc4s3)cccc2C(=O)N([C@@H](C)CO)C[C@H]1C	-9
O=C(C1CCC1)N1CCCCN2[C@@H](CO)[C@@H](c3ccc(C#CC4CCCC4)cc3)[C@@H]2C1	13
O=S(=O)(c1ccccc1)N1CC[C@@H]2[C@H](CO)Nc3ccc(-c4ccccc4F)cc3[C@@H]21	-11
C[C@H](CO)N1C[C@H](C)[C@@H](CN(C)CC2CCCCC2)Oc2ccc(NC(=O)Nc3ccccc3)cc2C1=O	3
COc1ccc(NC(=O)N(C)C[C@H]2Oc3c(NC(=O)c4cnccn4)cccc3C(=O)N([C@@H](C)CO)C[C@H]2C)cc1	3
CC(C)NC(=O)N(C)C[C@H]1Oc2ccc(NC(=O)CCC(F)(F)F)cc2CC(=O)N([C@H](C)CO)C[C@H]1C	2
CCC(=O)Nc1ccc2c(c1)C(=O)N(C)C[C@H](OC)[C@@H](C)CN(C(=O)Cc1ccccn1)[C@@H](C)CO2	-2
CCCNC(=O)C[C@@H]1CC[C@@H]2[C@H](COC[C@H](O)CN2Cc2cccc(F)c2)O1	-1
CN(C)C(=O)c1cccc(-c2ccc3c(c2)[C@@H]2[C@@H](CCN2C(=O)Cc2ccccn2)[C@@H](CO)N3C)c1	-9
O=C(c1cccc(F)c1)N1CC[C@@H]2[C@H](CO)Nc3ccc(-c4cccc(F)c4)cc3[C@@H]21	-9
N#Cc1ccc(-c2ccc3c(c2)[C@H]2[C@H](CCN2S(=O)(=O)c2ccccc2F)[C@H](CO)N3)cc1	-13
CC=Cc1ccc2n(c1=O)C[C@@H]1[C@@H](CO)[C@H](C(=O)NCCC)[C@H]2N1C(=O)C1CCCC1 (mixture of isomers)	7
Cc1ccc(S(=O)(=O)N2C[C@@H](O)COC[C@@H]3O[C@@H](CC(=O)NCCN4CCCCC4)CC[C@H]32)cc1	-8
COc1ccc(NC(=O)N2CCCCN3[C@H](CO)[C@@H](c4ccc(C5=CCCC5)cc4)[C@@H]3C2)cc1	6
O=C(C[C@@H]1CC[C@@H]2[C@H](COC[C@H](O)CN2C(=O)c2ccccn2)O1)N1CCN(c2ccccc2)CC1	3
CNC(=O)C[C@@H]1CC[C@H]2[C@@H](COC[C@H](O)CN2Cc2ccncc2)O1	18
COc1ccc(-c2ccc3c(c2)[C@H]2[C@H](CCN2C(=O)c2cccc(F)c2)[C@@H](CO)N3)cc1	-13
CN(C)C(=O)c1cccc(-c2ccc([C@H]3[C@@H](CO)N4CCCCN(Cc5cccnc5)C[C@@H]34)cc2)c1	-9
C[C@@H]1CN([C@@H](C)CO)C(=O)c2cc(NC(=O)Nc3ccc4c(c3)OCO4)ccc2O[C@H]1CN(C)C	-9
Cc1ccc(S(=O)(=O)N(C)C[C@@H]2Oc3c(NC(=O)NC(C)C)cccc3C(=O)N([C@@H](C)CO)C[C@@H]2C)cc1	7
COc1ccc(S(=O)(=O)Nc2ccc3c(c2)C(=O)N([C@@H](C)CO)C[C@@H](C)[C@H](CN(C)Cc2ccncc2)O3)cc1	-7
COc1ccc(S(=O)(=O)N(C)C[C@H]2Oc3ccc(NC(=O)CCC(F)(F)F)cc3C(=O)N([C@H](C)CO)C[C@H]2C)cc1	5
CCCNC(=O)NC[C@H]1[C@H](c2ccc(C3=CCCC3)cc2)[C@H](CO)N1C(C)=O	1
C[C@H](CO)N1C[C@H](C)[C@@H](CN(C)C(=O)Nc2ccc(C(F)(F)F)cc2)Oc2ccc(N(C)C)cc2C1=O	23
CO[C@@H]1CN(C)C(=O)c2ccc(NS(=O)(=O)c3ccc(C)cc3)cc2OC[C@H](C)N(Cc2nccs2)C[C@H]1C	6
CCC(=O)NC[C@H]1[C@H](c2ccc(-c3cccc(F)c3)cc2)[C@@H](CO)N1C(=O)CC	36
COCC(=O)N1C[C@@H]2[C@H](c3ccccc31)[C@@H](CO)N2C(=O)C1CCOCC1	3
COCC(=O)Nc1ccc2c(c1)[C@H]1C[C@@H](CC(=O)NCc3ccncc3)O[C@H](CO)[C@H]1O2	-8
C[C@H](CO)N1C[C@H](C)[C@H](CN(C)C(=O)NC2CCCCC2)Oc2ccc(NC(=O)Cn3cnnn3)cc2C1=O	9
Cc1ccc(S(=O)(=O)N2C[C@H](O)COC[C@H]3O[C@H](CC(=O)N[C@@H]4CCN(Cc5ccccc5)C4)CC[C@@H]32)cc1	-7
CNC[C@@H]1Oc2ccc(NC(=O)NC(C)C)cc2CC(=O)N([C@@H](C)CO)C[C@@H]1C	-5
C[C@@H]1CN([C@H](C)CO)C(=O)CCCn2nncc2CO[C@H]1CN(C)Cc1ccc2c(c1)OCCN2C	0
CCC(=O)Nc1ccc2c(c1)C(=O)N(C)C[C@@H](OC)[C@H](C)CN(CC1CC1)[C@@H](C)CO2	-13
O=C(C[C@H]1CC[C@H]2[C@@H](COC[C@@H](O)CN2C(=O)c2ccccc2F)O1)N1CCOCC1	4
OC[C@@H]1[C@H](c2ccc(C#Cc3ccccc3)cc2)[C@@H]2CN(CC3CCOCC3)CCCCN12	22
CO[C@H]1CN(C)C(=O)c2ccc(NC(=O)c3ccccc3)cc2OC[C@@H](C)N(C(C)=O)C[C@H]1C	38
CCC(=O)N1[C@H](CO)[C@H](c2ccc(-c3cccnc3)cc2)[C@H]1CN(CC)C(C)=O	-8
O=C([C@@H]1[C@@H](CO)[C@@H]2Cn3c(ccc(C4=CCCC4)c3=O)[C@H]1N2Cc1nccs1)N1CCCCC1	-1
CO[C@H]1CN(C)C(=O)c2cc(NS(C)(=O)=O)ccc2OC[C@@H](C)N(C(=O)C2CCCC2)C[C@H]1C	-13
CN1C[C@@H]2[C@H](c3ccccc31)[C@@H](CO)N2C(=O)Nc1cccc(F)c1	-18
C[C@H]1CN([C@@H](C)CO)C(=O)c2cc(NC(=O)Nc3ccc4c(c3)OCO4)ccc2O[C@@H]1CN(C)Cc1ccc(Cl)c(Cl)c1	-5

13 entries from above, arranged by number of heavy atoms, high to low.
SMILES	Yeast UUG start
Cc1noc(C)c1NC(=O)N(C)C[C@@H]1Oc2c(NC(=O)c3nc4ccccc4s3)cccc2C(=O)N([C@@H](C)CO)C[C@H]1C	-9
C[C@H](CO)N1C[C@H](C)[C@H](CN(C)C(=O)NC2CCCCC2)Oc2ccc(NC(=O)Cn3cnnn3)cc2C1=O	9
C[C@H](CO)N1C[C@H](C)[C@@H](CN(C)CC2CCCCC2)Oc2ccc(NC(=O)Nc3ccccc3)cc2C1=O	3
O=C(C[C@@H]1CC[C@@H]2[C@H](COC[C@H](O)CN2C(=O)c2ccccn2)O1)N1CCN(c2ccccc2)CC1	3
Cc1ccc(S(=O)(=O)N2C[C@@H](O)COC[C@@H]3O[C@@H](CC(=O)NCCN4CCCCC4)CC[C@H]32)cc1	-8
O=C(Nc1ccccc1F)N1CCCCN2[C@H](CO)[C@H](c3ccc(-c4cccnc4)cc3)[C@@H]2C1	-4
Cc1cccc(S(=O)(=O)N2CCCCN3[C@H](C2)[C@H](c2ccc(C#CC(C)C)cc2)[C@@H]3CO)c1	15
COCC(=O)Nc1ccc2c(c1)[C@H]1C[C@@H](CC(=O)NCc3ccncc3)O[C@H](CO)[C@H]1O2	-8
O=C(C1CCC1)N1CCCCN2[C@@H](CO)[C@@H](c3ccc(-c4cccc(F)c4)cc3)[C@@H]2C1	-9
CCC(=O)N1[C@H](CO)[C@H](c2ccc(-c3cccnc3)cc2)[C@H]1CN(CC)C(C)=O	-8
CCCNC(=O)NC[C@H]1[C@H](c2ccc(C3=CCCC3)cc2)[C@H](CO)N1C(C)=O	1
COCC(=O)N1C[C@@H]2[C@H](c3ccccc31)[C@@H](CO)N2C(=O)C1CCOCC1	3
CCC(=O)N1C[C@@H]2[C@H](c3ccccc31)[C@H](CO)N2C(=O)CC1CC1	-6

(list continues)
SMILES	Yeast UUG start
CCCC(=O)Nc1ccc2c(c1)OC[C@@H](C)N(Cc1ccccc1C(=O)O)C[C@@H](C)[C@H](OC)CN(C)C2=O	-5
CO[C@H]1CN(C)C(=O)c2cc(NC(=O)c3ccccc3)ccc2OC[C@@H](C)N(C(C)=O)C[C@@H]1C	44
CC(=O)N(C)C[C@H]1[C@H](c2ccc(-c3ccccc3F)cc2)[C@H](CO)N1C(C)=O	7
COc1cccc(S(=O)(=O)Nc2ccc3c(c2)C(=O)N(C)[C@H]2CC[C@H](CC(=O)NCC4CCCCC4)O[C@@H]2CO3)c1	-28
Cc1cccc(S(=O)(=O)N2C[C@H]3[C@@H](c4ccccc42)[C@H](CO)N3Cc2ccccn2)c1	5
CC(=O)N1C[C@@H]2[C@H](c3ccccc31)[C@H](CO)N2C(=O)Nc1ccc(F)cc1	27
O=C(C[C@@H]1CC[C@@H]2[C@H](COC[C@H](O)CN2C(=O)Nc2ccc(C(F)(F)F)cc2)O1)NCCc1ccncc1	12
CN1c2ccc(Br)cc2[C@H]2[C@H](CCN2C(=O)Nc2cc(F)ccc2F)[C@H]1CO	13
Cc1ccccc1-c1ccc([C@@H]2[C@H]3CN(S(C)(=O)=O)CCCCN3[C@H]2CO)cc1	-2
CN(C)C(=O)C[C@@H]1C[C@@H]2c3cc(NC(=O)c4ccc5c(c4)OCO5)ccc3O[C@@H]2[C@H](CO)O1	-3
C[C@@H]1CN([C@H](C)CO)C(=O)c2cc(NC(=O)Cc3ccccc3)ccc2O[C@@H]1CN(C)S(=O)(=O)c1cn(C)cn1	-9
O=C(C[C@H]1CC[C@@H]2[C@H](COC[C@H](O)CN2C(=O)c2ccccc2)O1)NC1Cc2ccccc2C1	2
O=C(c1cccc(F)c1)N1CCCCN2[C@H](CO)[C@H](c3ccc(-c4cccnc4)cc3)[C@@H]2C1	-14
CO[C@@H]1CN(C)C(=O)c2ccc(NC(=O)Nc3cc(F)ccc3F)cc2OC[C@@H](C)N(C(=O)c2ccccn2)C[C@@H]1C	-3
CO[C@@H]1CN(C)C(=O)c2cc(NC(=O)c3ccccc3)ccc2OC[C@@H](C)N(C(=O)CN(C)C)C[C@@H]1C	7
C[C@H](CO)N1C[C@H](C)[C@H](CN(C)Cc2ccc(-c3ccccc3)cc2)Oc2ccc(NS(=O)(=O)c3ccc(F)cc3)cc2C1=O	8
C[C@@H]1CN([C@H](C)CO)C(=O)c2cccc(NC(=O)C3CCCCC3)c2O[C@@H]1CN(C)Cc1ccc2c(c1)OCO2	3
CC(C)NC(=O)N(C)C[C@@H]1Oc2ccc(NC(=O)Cc3ccccc3)cc2CC(=O)N([C@H](C)CO)C[C@@H]1C	3
C[C@H](NC(=O)[C@H]1[C@H](CO)[C@H]2Cn3c(ccc(-c4ccccc4)c3=O)[C@H]2N1C)c1ccccc1	-8
Cc1cccc(S(=O)(=O)N2CCCCN3[C@@H](CO)[C@@H](c4ccc(-c5cccnc5)cc4)[C@@H]3C2)c1	-8
Cc1cccc(S(=O)(=O)N2CCCCN3[C@H](CO)[C@H](c4ccc(C#CC(C)C)cc4)[C@@H]3C2)c1	7
CN(C)C(=O)C[C@@H]1CC[C@@H]2[C@H](COC[C@@H](O)CN2CC2CCOCC2)O1	-10

Screening data as filed in PubChem.

This is a subset; rates above refer to the full screens.
